# RE007 growth inh = less growth of the S. pombe RE007 Vpr strain | S. pombe RE007 Vpr strain, BacTiter-Glo ATP luminescence, 24 h; control for the full effect not named in the record | Potency, µM (titrated, usually from 92.2 µM), for the others: top-dose activity change, negative = less growth | hit rate 0.21% among 360,000 | AID 651644; active = well fitted falling curve with a large enough effect; inconclusive = small, poorly fitted or top-dose-only effect; inactive = no such curve, though single readings can be large or run the other way;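 further: on the % scale 0 is the no-effect control and ±100 the full control effect; nearly all actives have a fitted effect of over 50% in size; the assay follows cell death caused by Vpr and the record does not say whether a fall means rescue or toxicity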
#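 Fission yeast RE007 carrying one integrated HIV-1 vpr copy, seeded at OD 0.01 in PMG+AL medium with 23 nL pinned compound. Grown 24 h at 30 degrees; viability read by BacTiter-Glo luminescence after 5 min.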
# Lassa entry inh = Lassa virus entry inhibition. AID 540256. hit rate 1.2% among 300,000. Potency, µM (highest dose often 37.9 µM), inactives show at the top dose activity change, negative = inhibition, actives largely listed as inhibitors. Lassa virus pseudotype entry inhibition, cell reporter; control for the full effect not named in the record; active means well fitted inhibition curve with a large enough effect; inconclusive means small, poorly fitted or top-dose-only effect, or effect the other way; inactive means flat fitted curve, though single readings scatter; tested in HEK293 cells; further: on the % scale 0 is the no-effect control and ±100 the full control effect; nearly all actives have a fitted effect of over 50% in size; luciferase read-out
# MARV entry inh = blocks Marburg virus binding to or entry into cells; Marburg virus pseudotyped entry inhibition, cell reporter; control for the full effect not named in the record; about a third of the inactives were read at about 46 µM; Potency, µM (doses to about 37.8 µM), inactives show at the highest dose activity change, negative = inhibition, hits mostly inhibitors; hit rate 1.8% among 300,000; active = well fitted inhibition curve with a large enough effect; inconclusive = small, poorly fitted or top-dose-only effect, or effect the other way; inactive = flat fitted curve, though single readings scatter; tested in HEK293 cells; about a fifth of its hits are not listed in these tables; further: on the % scale 0 is the no-effect control and ±100 the full control effect; luciferase read-out
# Cruzain noTriton = inhibitors of Trypanosoma cruzi cruzain without detergent; P25779; hit rate 2.3% among 200,000; purified cruzain, Z-FR-AMC fluorescence, no detergent; AID 1476; Potency, µM, for the others: max response, negative = inhibition, hits mostly inhibitors;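 further: plate controls were enzyme without inhibitor for no effect and buffer without enzyme for full effect; nearly all actives have a fitted effect of over 40% in size; top concentration of the series not given in the record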
# Target sequence (P25779 123-467 limits assumed): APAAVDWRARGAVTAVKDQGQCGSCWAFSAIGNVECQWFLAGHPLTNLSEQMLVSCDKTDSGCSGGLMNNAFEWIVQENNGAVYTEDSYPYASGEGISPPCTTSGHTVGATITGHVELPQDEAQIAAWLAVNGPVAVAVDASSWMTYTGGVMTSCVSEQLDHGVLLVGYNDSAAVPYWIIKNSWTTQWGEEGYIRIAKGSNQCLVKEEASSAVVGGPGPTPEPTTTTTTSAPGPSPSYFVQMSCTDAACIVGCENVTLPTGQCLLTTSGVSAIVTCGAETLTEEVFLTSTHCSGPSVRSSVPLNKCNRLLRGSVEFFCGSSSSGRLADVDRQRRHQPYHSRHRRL
#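 Detergent-free condition (0.00005% Triton X-100) in acetate buffer pH 5.5 with DTT. 1.5 nM enzyme and compound were pre-mixed 15 min, then 2 uM Z-FR-AMC substrate added; reaction progress from fluorescence change between first and third reads (60 s).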
# 2A StopGo = FMDV 2A StopGo reporter, luciferase signal; hit rate 1.2% among 410,000; Potency, µM (doses to about 57.9 µM), without a hit: at the top dose signal change, negative = less light; human cells with a luciferase reporter of 2A StopGo recoding; control for the full effect not named in the record; AID 1159524; active = well fitted falling curve with a large enough effect; inconclusive = small, poorly fitted or top-dose-only effect; inactive = no such curve, though single readings can be large or run the other way; tested in HEK293T cells; further: on the % scale 0 is the no-effect control and ±100 the full control effect; nearly all actives have a fitted effect of over 45% in size; luciferase light after 4 h
# SARS PLpro yeast = inhibitors of SARS-CoV papain-like protease in yeast. S. cerevisiae expressing SARS-CoV PLpro, growth rescue; control for the full effect not named in the record. Potency, µM (titrated, usually from 32.9 µM), inactives show top-dose activity, positive = growth rescue. hit rate 0.19% among 330,000; active means well fitted rising curve with a large enough effect; inconclusive means small, poorly fitted or top-dose-only effect; inactive means no such curve, though single readings can be large or run the other way; further: 0% is about no effect; nearly all actives have a fitted effect of over 55% in size; growth read by luminescence after 48 h
# Cruzain Triton = inhibitors of Trypanosoma cruzi cruzain with detergent. P25779. purified cruzain, Z-FR-AMC fluorescence, 0.01% Triton. Potency, µM, without a hit: max response, negative = inhibition, actives largely listed as inhibitors. hit rate 0.43% among 200,000;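 further: plate controls were neutral wells for no effect and buffer without enzyme for full effect; nearly all actives have a fitted effect of over 40% in size; top concentration of the series not given in the record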
#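 15 min RT preincubation of 1.5 nM cruzain with compound, then 2 uM Z-FR-AMC added; kinetic AMC fluorescence, 60 s delta. Triton X-100 0.01%, pH 5.5.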
# NS1 inh = blocks influenza NS1 protein function; AID 2326; Potency, µM (top dose mostly 46.1 µM), for the others: at the top dose activity, positive = more growth; S. cerevisiae slowed by influenza A NS1, growth recovery by OD600; hit rate 0.4% among 270,000; active means well fitted rising curve with a large enough effect; inconclusive means small, poorly fitted or top-dose-only effect; inactive means no such curve, though single readings can be large or run the other way; further: nearly all actives have a fitted effect of over 50% in size
#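 A cell-based growth assay was used: compounds that relieve NS1-induced slow growth of budding yeast raise OD600. Assay medium was yeast nitrogen base with ammonium sulphate and -URA supplement, pH 6.0, with 2% galactose.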
# Starred values were filed as active, the others as inactive; ? = inconclusive; . = not tested or not shown; & = joins results of further samples; [ ] = remark or other dose. Unless noted, the call rests on the fitted dose curve; in most records, active means well fitted curve in the direction sought with a large enough effect; inconclusive means small, poorly fitted or top-dose-only effect, or another doubt; inactive means no such curve, though single readings can be large; an effect the other way counts as inactive or inconclusive. Potency means the concentration at half of the fitted maximal effect. Not a hit list; overall some 4.7% were active at least once.
SMILES	Lassa entry inh	SARS PLpro yeast	RE007 growth inh	Cruzain Triton	Cruzain noTriton	2A StopGo	NS1 inh	MARV entry inh
Cc1ccc(NC(=O)CN(C)C(=O)CCOc2cccc(C)c2)cc1	-5%	-21%	-6%	-2.0%	9%	-11%	-9%	-12%
COc1cc(OC)c(OC)cc1CNCCCSc1nnnn1C	-3%[46.1 µM]	.	.	-1.1%	-10%	-12%	.	4%[46.1 µM]
N#CCCN(C(=O)COC(=O)Cc1c[nH]c2ccccc12)c1ccccc1	8%	-7%	1%	.	.	2%	.	30%
Cc1ccc(S(=O)(=O)Nn2c(C)ccc2C)cc1	13%	1%	0%	-1.5%	?	-22%	?	-6%
CCN1CCN(C(=O)c2ccc(COc3ccc(Cl)cc3)o2)CC1	-15%	-3%	-7%	3.4%	-7%	?	3%	-23%
CCCCC(=O)NCc1ccc2c(c1)cc(C)n2C	-41%	2%	1%	6.1%	-4%	28%	?	9%
CCOc1ccc(NS(=O)(=O)c2ccc(C(=O)NCc3cccnc3)cc2)cc1	-23%	-8%	7%	.	.	-22%	.	-13%[46.1 µM]
O=C(CCCOc1ccc(Br)cc1)Nc1ccc(S(=O)(=O)N2CCOCC2)cc1	?	-3%	6%	.	.	?	.	-54%[46.1 µM]
CC(=O)N1CCN(c2nnnn2-c2ccccc2)CC1	-8%	9%	4%	4.8%	-9%	-9%	21%	0%
CN(C)CCn1c2c(c(SCC(=O)Nc3cccc(C(F)(F)F)c3)nc1=O)CCCC2	-1%	9%	-5%	.	.	34%[activator]	.	?
CCOCCCNC(=O)CCc1ccc(-n2cnc3cccnc32)cc1	19%[46.1 µM]	0%	2%	.	.	4%	2%	-2%[46.1 µM]
CCC(C(=O)Nc1ccc(C(C)C)cc1)n1nc(C)n2c(cc3cc(C)ccc32)c1=O (stereo not given)	-7%[46.1 µM]	.	.	-5.9%	?	13%	.	?
Cc1csc(SCc2c(C(=O)O)oc3ccccc23)n1	23%	4%	37%	-2.6%	-12%	20%	-4%	12%
Cc1cc(Nc2ccccc2Br)n2nc(C)nc2n1	-7%	-3%	-2%	-0.7%	4%	-12%	-10%	-5%
O=[N+]([O-])c1cc([N+](=O)[O-])c(N2CCOCC2)cc1NCc1ccccc1	-5%	-16%	9%	2.5%	-3%	-27%	1%	-9%
O=C(NCCc1cccs1)C12CN(Cc3ccccc3)CC1C(c1cccc([N+](=O)[O-])c1)=NO2 (stereo not given)	.	-13%	-5%	3.3%	13µM*	-1%	-6%	4%
Cc1ccc(C)c(NC(=O)Nc2cccc(-c3cn4cccnc4n3)c2)c1	9%[46.1 µM]	.	.	1.5%	1%	3%	.	?
CN(CC(=O)Nc1ccc(Cl)cc1)C(=O)C1CCCC1	29%	0%	-1%	.	.	18%	.	?
Cc1ccc(C(=O)N/C(=C/c2ccccc2)C(=O)NCc2ccncc2)cc1	.	1%	0%	.	.	-2%	2%	.
CCOc1ccc2[nH]c(C)c(CN3CCN(CC)CC3)c(=O)c2c1	13%	8%	-19%	-3.6%	-16%	4%	1%	0%
O=C(COc1ccc2cc(Br)ccc2c1Br)N1CCOCC1	?	0%	-8%	.	.	18%	-36%	?
COc1ccccc1N1C(=O)c2ccc(C(=O)Nc3ccccc3O)cc2C1=O	.	1%	2%	.	.	-11%	-4%	.
COc1ccc(NS(=O)(=O)c2ccc3[nH]c(=O)ccc3c2)cc1OC	-5%[46.1 µM]	.	.	-14%	6%	-11%	.	.
CCOCCCNc1ncc2c(n1)CC(c1ccc(C)cc1)CC2=O (stereo not given)	?	2%	4%	-0.6%	5%	-16%	-6%	16%
COc1cc(/C=C/c2nc3ccccc3c(=O)n2-c2ccccc2O)ccc1O	?	0%	-21%	.	.	-24%	-7%	?
CN1C(=O)NC(=O)/C(=C/c2ccc(C(=O)O)cc2)C1=O	.	1%	12%	.	.	-9%	6%	.
O=C(NCN1C(=O)C2C3C=CC(C3)C2C1=O)Nc1ccccc1O (stereo not given)	2%	1%	6%	.	.	14%	.	5%[46.1 µM]
Nc1nc2n(n1)C(c1ccco1)CC(c1ccccc1)N2 (stereo not given)	6%	23%	-12%	0.7%	-21%	-5%	10%	31%
COc1ccc(-c2nonc2NC(=O)c2ccco2)cc1OC	.	3%	-4%	.	.	-10%	9%	.
COc1cccc(C(C)NC(=O)c2ccncc2)c1 (stereo not given)	4%	5%	10%	.	.	3%	-4%	?
COc1ccc(CCC(=O)NC2CC(=O)N(c3ccc(C)cc3)C2)cc1 (stereo not given)	-1%[46.1 µM]	.	.	-0.2%	1%	-17%	.	.
COc1ccccc1/C=C/C=N/NC(=O)CC1C(=O)NN=C1C (stereo not given)	?	0%	5%	.	.	1%	9%	6%
O=C(COC(=O)c1cccnc1Cl)NCCc1ccc(F)cc1	26%	-15%	6%	.	.	4%	.	23%
COc1cc(-c2nnc(COC(=O)c3cc(C)no3)o2)cc(OC)c1OC	10%	1%	-10%	.	.	-6%	8%	1%
CSc1ncc(CN2CCN(C3CCCCC3)C(CCO)C2)cn1 (stereo not given)	17%[46.1 µM]	0%	-7%	.	.	-21%	3%	4%[46.1 µM]
CCOC(=O)C1CCCN(S(=O)(=O)c2ccc(-n3cnnn3)c(C)c2)C1 (stereo not given)	-1%[46.1 µM]	2%	10%	.	.	8%	-2%	-5%[46.1 µM]
CC(=O)c1ccc(O)c(CO)c1	20%	1%	15%	6.0%	5%	0%	5%	7%&7%
Cc1ccc(S(=O)(=O)NCc2ccccc2)cc1C(=O)NCc1ccccn1	.	0%	-3%	.	.	35%[activator]	1%	.
COCCN(Cc1ccc(C)c(Br)c1)C(=O)Cn1cnc(S(=O)(=O)N2CCCC2)c1	.	-6%	-8%	.	.	-12%	5%	.
Cc1cc(C)cc(OCC(=O)NNC(=O)c2ccoc2C)c1	-7%	-8%	-4%	-0.1%	-4%	-4%	-4%	14%
CCc1nn(CCCC(=O)NCc2ccc(C)cc2)c(=O)c2cc3occc3n12	20%[46.1 µM]	-2%	0%	-2.2%	9%	-10%&6%	-4%	0%&0%[46.1 µM]
CCC(CC)Nc1ccc(C(CC(N)=O)NC(=O)c2ccccc2)cc1[N+](=O)[O-] (stereo not given)	.	-3%	-12%	.	.	-5%	26%	.
COC(=O)c1ccc(C(=O)OC)c(NC(=O)c2cnc3n(c2=O)CCS3)c1	-3%	-1%	-3%	-2.8%	9%	39%[activator]	-5%	24%
Cc1cccc(NC(=O)c2sc3nc(-c4cc5ccc(O)cc5oc4=O)[nH]c(=O)c3c2C)c1	?	.	.	-0.2%	-11%	-24%	.	.
CCOC(=O)CC1=C(C(=O)OCC)C(c2cccnc2)C(C#N)=C(N)O1 (stereo not given)	15%	-10%	0%	2.5%	-2%	0%	16%	0%
OCc1nc2c(ccc3ccccc32)[nH]1	?	2%	17%	.	.	15%	12%	?
Cc1ccc2c(c1)N(CCC(=O)NCc1ccc3c(c1)OCO3)C(=O)CO2	8%	-11%	7%	2.6%	4%	-14%	-8%	-1%
CCOC(=O)c1c(NC(=O)CSc2nnnn2CC)sc(C)c1C	1%	-9%	-3%	-6.2%	?	-13%	-58%	-25%[46.1 µM]
O=C(NC(=S)N1CCN(c2nc(-c3ccccc3)cs2)CC1)c1cncc(Br)c1	.	0%	-5%	.	.	-28%	4%	.
Cc1ccc(NC(=O)c2ccc(OCC3CCCO3)cc2)nc1 (stereo not given)	?	2%	-5%	.	.	?	.	?
COc1ccccc1-c1nc2cc3ccccc3cc2nc1-c1ccccc1	-1%	-30%	1%	-5.3%	?	9%	14%	-32%
CCOC(=O)/C(=N\Nc1ccc(Br)cc1)N1CCN(c2ccccc2OC)CC1	-21%	-12%	22%	.	.	-23%	1%	-25%[46.1 µM]
COc1cc(NS(=O)(=O)c2ccc3oc(=O)c4ncn(C)c4c3c2)cc(OC)c1	28%[46.1 µM]	.	.	-4.5%	?	-7%	.	.
COc1ccc2[nH]c(=O)c(CN(C)C(=O)COc3ccccc3)cc2c1	14%	-4%	22%	-1.4%	-5%	?	-2%	26%
CCCC1COC(Cn2cncn2)(c2ccc(Cl)cc2Cl)O1 (stereo not given)	?	-20%	-5%	5.9%	-5%	?	-120%	-17%
Clc1ccc(-c2nc3cnccn3c2NC2CCCC2)cc1	3%	-24%	4%	-16%	16%	?	-72%	?
O=C(O)C1CSC2(c3ccc(F)cc3)CCC(=O)N12 (stereo not given)	10%[46.1 µM]	0%	17%	.	.	-4%	.	8%[46.1 µM]
Cc1onc(-c2c(Cl)cccc2Cl)c1C(=O)NCc1ccc(S(N)(=O)=O)cc1	.	2%	4%	.	.	-2%	24%	.
CCC(c1nnc(SCC(=O)Nc2cc(Cl)ccc2C#N)n1C1CCCCC1)N(C)C (stereo not given)	2%	-7%	3%	-2.3%	3%	-9%	6%	-31%
CCOC(=O)c1[nH]c(C)c(C(=O)Nc2ccc(C)c(Cl)c2)c1C	?	0%	-8%	-4.3%	-10%	8%	-5%	?

# The list continues.
SMILES	Lassa entry inh	SARS PLpro yeast	RE007 growth inh	Cruzain Triton	Cruzain noTriton	2A StopGo	NS1 inh	MARV entry inh
CCCc1cc(-c2[nH]ncc2-c2ccc(C(=O)OCC)o2)c(O)cc1O	-17%	5%	3%	-16%	-3%	.	?	?
C[C@@H](Nc1nc(-c2ccccc2)nc2c1oc1ccccc12)C(=O)O	1%	2%	8%	-3.8%	9%	-6%	13%	5%
COC(=O)c1sccc1NC(=O)COc1ccccc1Cl	0%	3%	-26%	-4.1%	-4%	0%	-9%	-5%
COc1cc(OC)c(OC)cc1/C=C/c1cc(C(=O)O)c2ccccc2n1	.	1%	-8%	.	.	-4%	5%	.
